# From PubChem
# nsP2pro primary = Primary qHTS for inhibitors of NSP2Pro chikungunya virus (CHIKV); 31,000 compounds, 1.1% hits; AID 1964107, 2024; FRET peptide cleavage, nsP2pro, fluorescence 1 h; Polyprotein P1234 (Chikungunya virus (strain S27-African prototype)), Q8JUX6; Potency, µM (titrated, usually from 24.9 µM), for the others: top-dose activity change, negative = inhibition, hits mostly inhibitors; active means well fitted inhibition curve with a large enough effect; inconclusive means small, poorly fitted or top-dose-only effect; inactive means no such curve, though single readings can be large or run the other way; also: nearly all actives have a fitted effect of over 60% in size; a reference inhibitor and vehicle were the controls
# Target sequence (Q8JUX6 whole entry, looked up): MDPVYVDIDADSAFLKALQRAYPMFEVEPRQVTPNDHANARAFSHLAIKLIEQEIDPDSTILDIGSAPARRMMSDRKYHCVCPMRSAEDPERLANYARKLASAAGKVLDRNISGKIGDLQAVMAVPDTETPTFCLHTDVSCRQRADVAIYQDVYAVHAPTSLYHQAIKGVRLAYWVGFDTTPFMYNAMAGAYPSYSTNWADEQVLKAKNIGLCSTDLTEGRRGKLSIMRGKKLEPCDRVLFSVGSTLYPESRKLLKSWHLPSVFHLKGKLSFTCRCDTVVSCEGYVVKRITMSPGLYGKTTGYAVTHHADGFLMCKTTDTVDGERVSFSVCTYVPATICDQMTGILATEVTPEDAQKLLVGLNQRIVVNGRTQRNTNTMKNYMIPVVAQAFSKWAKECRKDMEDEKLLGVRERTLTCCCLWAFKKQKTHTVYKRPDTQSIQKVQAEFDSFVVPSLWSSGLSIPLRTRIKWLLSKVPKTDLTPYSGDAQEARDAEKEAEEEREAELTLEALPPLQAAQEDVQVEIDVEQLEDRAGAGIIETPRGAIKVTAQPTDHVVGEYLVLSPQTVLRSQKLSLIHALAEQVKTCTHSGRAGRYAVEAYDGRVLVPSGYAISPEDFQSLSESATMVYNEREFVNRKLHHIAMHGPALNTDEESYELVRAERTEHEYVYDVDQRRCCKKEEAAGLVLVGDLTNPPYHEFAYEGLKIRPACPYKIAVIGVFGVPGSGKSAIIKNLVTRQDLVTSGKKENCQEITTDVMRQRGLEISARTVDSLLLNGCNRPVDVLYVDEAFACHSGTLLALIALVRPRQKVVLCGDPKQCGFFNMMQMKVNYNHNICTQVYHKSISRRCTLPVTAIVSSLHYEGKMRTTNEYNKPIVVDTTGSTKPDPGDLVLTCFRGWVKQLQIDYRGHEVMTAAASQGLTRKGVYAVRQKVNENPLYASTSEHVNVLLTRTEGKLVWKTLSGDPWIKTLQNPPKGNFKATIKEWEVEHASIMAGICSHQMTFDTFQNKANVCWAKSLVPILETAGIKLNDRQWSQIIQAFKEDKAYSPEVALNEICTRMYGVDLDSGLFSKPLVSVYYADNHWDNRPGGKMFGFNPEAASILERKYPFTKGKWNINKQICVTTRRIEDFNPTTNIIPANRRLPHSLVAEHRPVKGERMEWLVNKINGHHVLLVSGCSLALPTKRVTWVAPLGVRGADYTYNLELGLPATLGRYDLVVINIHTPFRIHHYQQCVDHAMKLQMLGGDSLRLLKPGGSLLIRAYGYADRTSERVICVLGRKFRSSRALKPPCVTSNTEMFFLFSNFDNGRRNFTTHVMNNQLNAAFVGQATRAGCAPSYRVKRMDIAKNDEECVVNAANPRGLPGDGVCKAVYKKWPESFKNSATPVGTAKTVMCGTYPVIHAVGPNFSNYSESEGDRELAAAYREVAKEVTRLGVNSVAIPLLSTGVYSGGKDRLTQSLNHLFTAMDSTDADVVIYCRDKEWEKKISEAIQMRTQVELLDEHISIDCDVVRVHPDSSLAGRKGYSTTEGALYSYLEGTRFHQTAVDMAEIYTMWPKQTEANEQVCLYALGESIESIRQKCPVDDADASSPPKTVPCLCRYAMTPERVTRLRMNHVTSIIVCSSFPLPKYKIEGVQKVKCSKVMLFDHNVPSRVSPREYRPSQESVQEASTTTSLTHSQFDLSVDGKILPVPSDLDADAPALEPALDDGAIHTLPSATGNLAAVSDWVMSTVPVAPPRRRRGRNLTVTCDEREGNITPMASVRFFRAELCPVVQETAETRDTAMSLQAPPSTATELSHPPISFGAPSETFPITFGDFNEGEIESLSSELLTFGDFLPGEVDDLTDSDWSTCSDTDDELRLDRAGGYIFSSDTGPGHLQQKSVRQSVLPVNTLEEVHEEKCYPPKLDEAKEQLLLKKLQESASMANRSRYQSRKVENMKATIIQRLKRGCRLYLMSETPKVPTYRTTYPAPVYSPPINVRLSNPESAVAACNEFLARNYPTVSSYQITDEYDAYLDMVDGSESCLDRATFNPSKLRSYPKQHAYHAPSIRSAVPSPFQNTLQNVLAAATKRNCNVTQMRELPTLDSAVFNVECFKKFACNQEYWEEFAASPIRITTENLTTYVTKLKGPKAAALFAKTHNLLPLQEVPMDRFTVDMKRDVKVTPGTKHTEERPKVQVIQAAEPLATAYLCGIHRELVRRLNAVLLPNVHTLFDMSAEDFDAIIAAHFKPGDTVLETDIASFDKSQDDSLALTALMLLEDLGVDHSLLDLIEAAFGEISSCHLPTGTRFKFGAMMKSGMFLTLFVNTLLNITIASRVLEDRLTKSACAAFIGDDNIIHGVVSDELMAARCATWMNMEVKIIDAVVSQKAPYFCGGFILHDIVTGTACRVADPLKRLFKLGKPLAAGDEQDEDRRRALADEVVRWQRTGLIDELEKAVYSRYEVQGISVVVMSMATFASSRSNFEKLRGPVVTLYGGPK
# * hit, by the source's call; i = inactive; u = inconclusive; [ ] = dose if it differs, or a comment. % is scaled to controls: 0 for no effect and ±100 for the full control effect; potency is read from the fitted curve at half-maximal effect. These rows are one share of the data; rates above refer to the full screens.
nr	Molecule	nsP2pro primary
1	O=C(c1cn(CC2CCCO2)nn1)N1CCN(c2cccc(C(F)(F)F)c2)CC1 (centres undefined)	-5%
2	C=CC(C)(C)C12C=C(OC)C(=O)N3C(C(C)C)C(=O)NC31N(OC)c1ccccc12 (centres undefined)	-7%[10 µM]
3	C[C@]12CCC3=C4CCC(=O)C=C4CC[C@H]3[C@@H]1CC[C@@]2(O)CC#N	-5%
4	COc1ccc(Nc2cc(C(=O)NCc3ccccc3OC)c3ccccc3n2)cc1	-10%
5	COc1ccccc1-c1cc(C(=O)NC2CC2)nn2cnnc12	i
6	CN1CCc2cc(Cl)c(O)cc2[C@@H](c2cccc3c2OCC3)C1	-6%
7	COc1cccc(CCC(=O)N2CCC3(CC2)N=C(c2ccccc2)NO3)c1	i
8	Cc1ccc2c(CC(=O)Nc3ccc(S(=O)(=O)N4CCCC(C)C4)cc3)coc2c1 (centres undefined)	-16%
9	O=C(NCCC1=CCCCC1)c1ccc2c(c1)N(Cc1ccccc1)C(=O)c1ccccc1S2(=O)=O	-18%
10	CCC(C)NC(=O)c1[nH]c2cc(C)ccc2c1Sc1ccc(Cl)cc1 (centres undefined)	10%
11	CNC(=O)[C@@H]1CN(S(=O)(=O)C(C)C)C[C@H]1c1n[nH]c(C)n1	-9%
12	CCC(CC)NC(=O)c1ccc2c(c1)N(S(C)(=O)=O)CC2	2%
13	c1coc(-c2nnc([C@H]3CCN(Cc4c[nH]c5ccccc45)C3)o2)c1	3%[39.2 µM]
14	COc1ccc(N2CCN(c3nc(C(=O)NCc4cccc(C)c4)cs3)CC2)cc1	i
15	CC(C)NC(=O)C1CCc2nnc(CNC(=O)C3CC3)n21 (centres undefined)	-12%[39.2 µM]
16	C[C@@]12CC[C@@H]3[C@@](CC[C@H]4[C@@]3(C)CCC[C@@]4(C)C(=O)O)(CC1=O)C2	u
17	C=C1C2=CC(O)C(C)C1(C)CC/C(C)=C/CCC1(C)OC1C2=O (centres undefined)	u
18	Cc1c(C(=O)NN2CCCCC2)nn(-c2ccc(Cl)cc2Cl)c1-c1ccc(Cl)cc1	12%
19	CC1(C(=O)Nc2ccccc2F)COCc2cnc(Nc3ccccc3)nc21 (centres undefined)	i
20	Cc1ccc(Cl)cc1-n1ncc2c(NCCCn3ccnc3)ncnc21	26%
21	COc1ccc(-c2cc(C(F)(F)F)nc(SCC(=O)NCc3ccc(F)cc3)n2)cc1	-16%
22	Cc1ccc(C)c(NC(=O)CN2C(=O)C(C)(C)c3ccccc32)c1	-6%
23	COCc1nc(-c2cccc(NC(=O)CC[C@H]3NC(=O)c4ccccc4NC3=O)c2)n[nH]1	-1%
24	CC(=O)c1ccc(N2CCN(S(=O)(=O)c3ccc4c(c3)C(=O)OC4)CC2)cc1	-1%
25	CCn1nc(C2CCN(C(=O)CCO)CC2)nc1-c1cnc(N)c(-c2nnc(C(C)(C)C)o2)n1	-9%
26	Cc1ccc(Cl)cc1N1CCN(C(=O)c2noc3c2CCCC3)CC1	-19%
27	CNC(=O)N1CCC(C2CCN(C(=O)c3cnccc3C)C2)CC1 (centres undefined)	-5%
28	CCn1cc(C(=O)N(C)Cc2ccccc2)c(=O)c2cc(S(=O)(=O)N3CCCCCC3)ccc21	-8%
29	O=[S+]([O-])(c1cccnc1)c1nnn2c1nc(NCc1ccncc1)c1ccccc12	i
30	CCCCSCCCNC(=O)C1CCC(CNS(=O)(=O)c2c(C)cc(C)cc2C)CC1 (centres undefined)	-10%
31	CCOc1cc(C(=O)Nc2cc3c(cc2N2CCOCC2)n(C)c(=O)n3C)cc(OCC)c1OCC	-21%
32	Cc1ccc(-c2nc3ncccc3o2)cc1NC(=O)c1ccccc1Br	-21%
33	Cc1cccc(Nc2nn3c(=O)c4ccccc4nc3s2)c1	-11%
34	COC(=O)N[C@H](C(=O)N[C@@H](Cc1ccccc1)[C@@H](O)CN(Cc1ccc(-c2ccccn2)cc1)NC(=O)[C@@H](NC(=O)OC)C(C)(C)C)C(C)(C)C	u
35	Cn1cccc1CN1C[C@@H](CO)[C@H](c2ccncc2)C1	u
36	Cc1cccc(NC(=O)CCc2c(C)nc3nc(CNC(=O)c4cccc(F)c4)nn3c2C)c1	-10%
37	CS(=O)(=O)N(C1CCOCC1)C1CN(C(=O)NCc2ccccc2)C1	-1%
38	Cc1ccc(NC(=O)[C@H](Cc2ccccc2)N2Cc3ccccc3C2=O)cc1F	u
39	Cn1cc(S(=O)(=O)N2CCCCCC2)cc1C(=O)NCc1ccccc1Cl	-21%
40	Cc1cc(C)n(C2CCN(c3nccc(-c4ccccn4)n3)C2)n1 (centres undefined)	i
41	C=C1C(=O)OC2C1CCC(=C)C1CC(OC(C)=O)C(=C)C12 (centres undefined)	94%[activator]
42	Cc1ccc2c(=O)cc(C(=O)Nc3ccc(S(=O)(=O)N(C)Cc4ccccc4)cc3)oc2c1C	-10%
43	Cc1ccc(C(=O)c2cn(CC(=O)NCc3ccccc3Cl)c3nc(C)ccc3c2=O)cc1	-23%
44	COc1cccc(Nc2cn(C)c(=O)n3cc(COc4ccccc4)nc23)c1	-31%[39.2 µM]
45	Cc1nn(C)c(C)c1S(=O)(=O)N1CCC(c2noc(-c3ccccc3)n2)C1 (centres undefined)	-8%
46	COc1ccc(S(=O)(=O)Nc2ccc(C)n(CC(=O)O)c2=O)cc1	-11%
47	CC(C)CC(=O)O[C@@H]1OC=C(CO[C@@H]2O[C@H](CO[C@@H]3O[C@H](CO)[C@@H](O)[C@H](O)[C@H]3O)[C@@H](O)[C@H](O)[C@H]2O)[C@H]2C[C@H](O)[C@@H](CO)[C@@H]12	-17%[10 µM]
48	CCc1ccc(NS(=O)(=O)c2ccc3[nH]cc(C(=O)NC4CCCC4)c(=O)c3c2)cc1	10%
49	Fc1c(-c2ccc3ncnc(NCc4cccs4)c3c2)ccc2c1OCO2	-6%
50	c1cncc(CN2CCn3c(nnc3C3CCCNC3)C2)c1 (centres undefined)	u

# Down the list, quoted from above.
# nsP2pro primary, compounds 34 to 42 → u, u, -10%, -1%, u, -21%, i, 94%[activator], -10%

# (cont.)
nr	Molecule	nsP2pro primary
51	CC1(C)NC(=O)N(CC(=O)N[C@H](Cc2ccccn2)C2CC(O)C2)C1=O (some centres undefined)	-3%
52	CCOC(=O)c1ccc(-c2ccc3ncnc(NCCc4cnc[nH]4)c3c2)o1	i
53	Cc1ccc([N+](=O)[O-])[c]2c1[O][Hg]2	1.6µM*
54	O=C1c2ccccc2NC(c2ccc(-c3ccc(F)cc3)o2)N1O (centres undefined)	-4%
55	CCN(C(=O)CSc1nc2ccccc2nc1Cc1cccc(OC)c1)c1cccc(C)c1	-9%
56	Cc1nc(N2CCC(NC(=O)COc3ccccc3)CC2)cc(C(F)(F)F)n1	i
57	Cc1ccc(NC(=O)N(Cc2ccc3c(c2)OCO3)C2CCN(Cc3ccccc3)CC2)cc1F	4%
58	O=C(Nc1ccc(F)cc1)c1nc(SCc2ccccc2F)ncc1Cl	-33%
59	O=C(O)c1cccnc1CN1CCCC(c2nc(-c3ccccc3)no2)C1 (centres undefined)	3%
60	CCN(Cc1ccccc1)C(=O)c1sc2nc3n(c(=O)c2c1C)CCCC3	-15%
61	COc1ccc(CCNC(=O)CCCCn2c(=O)c3ccccc3n(Cc3ccc(F)cc3Cl)c2=O)cc1OC	-22%
62	O=C(C1CC1)N1CCn2c(nn(-c3ccc(F)cc3)c2=O)C1	-2%[39.2 µM]
63	COc1cccc(NC[C@@H](O)Cn2c3ccc(Br)cc3c3cc(Br)ccc32)c1	-12%
64	CCCS(=O)(=O)N1C[C@@H]2C[C@H](C1)c1c(-c3cccc(C#N)c3)ccc(=O)n1C2	u
65	CN1C(=O)[C@@H](Cc2c[nH]c3ccccc23)N=C(c2ccccc2F)c2ccccc21	-5%
66	Cc1noc(C2CC3(CCN(C(=O)CCc4c[nH]c5ccccc45)CC3)CN2C)n1 (centres undefined)	-8%
67	CN(CCCN1c2ccccc2CCc2ccccc21)CC(=O)c1ccc(Cl)cc1	-4%
68	O=C(COc1ccc(Cl)cc1)Nc1cc(-c2ccccc2)no1	3%
69	O=C(NC1C[C@H]2CC[C@@H](C1)N2C(=O)c1ccn[nH]1)c1ccncc1 (some centres undefined)	i
70	CC1CCN(S(=O)(=O)c2ccc(N3CCCCS3(=O)=O)cc2)CC1	-26%
71	O=C(NCc1ccccc1C(F)(F)F)c1cccc2c1CCN2C(=O)C1CC1	-1%
72	O=C(Nc1ccc(Cl)c(C(F)(F)F)c1)Nc1nnc(-c2ccncc2)s1	-1%
73	COc1cc(C(=O)OC[C@@]2(O)CO[C@@H](O[C@H]3[C@H](Oc4ccc(C(=O)O)cc4OC)O[C@H](CO)[C@@H](O)[C@@H]3O)[C@@H]2O)ccc1O	u
74	CC1(N2CCC(n3c([C@@H]4CCCNC4)nc4ccccc43)CC2)CCCCCCC1	128%[activator]
75	COc1ccccc1-c1nc(NCc2ccc(-c3cccnc3)cc2)c2ccccc2n1	i
76	O=C(N1CCOCC1)N1C2CCC1CN(c1ccc(C(F)(F)F)cc1)C2	-17%
77	Nc1ccc(S(=O)(=O)N2CCN(S(=O)(=O)c3c(F)cccc3F)CC2)cc1	-17%
78	O=C(Nc1cc(C(F)(F)F)ccc1Cl)C(O)Cc1ccccc1 (centres undefined)	-3%
79	CCC1CN(C(=O)NCc2ccccc2)c2cc(Cl)ccc2O1 (centres undefined)	-16%
80	COc1ccccc1CCC(=O)N1CC(C(=O)N(C)C)C2(CCOCC2)C1 (centres undefined)	-6%
81	O=C(Nc1ccc(N2CCN(c3ccc(F)cc3)CC2)c(C(=O)O)c1)c1ccccc1F	u
82	Cc1cccc2ncc(C(=O)N3CCC4(CCNC(=O)CC4)CC3)c(=O)n12	i
83	CCCN1CCN(CC2=C(C(=O)OCC)C(c3cccc(OC)c3OC)NC(=O)N2)CC1 (centres undefined)	-16%
84	O=C1Nc2ccccc2/C1=C/c1cc(O)ccc1O	7.9µM*
85	c1cc(CN2CCC3(CCNCC3)CC2)ccn1	1%
86	Cc1ccc(SC2CCN(Cc3nc(CCc4ccccc4)no3)CC2)cc1	-3%
87	O=S1(=O)N=C(Oc2ccc(-c3ccccc3)cc2)c2ccccc21	-1%
88	CCC(=O)O[C@@H]1[C@@H](C)O[C@@H](O[C@H]2[C@H](N(C)C)[C@@H](O)[C@H](O[C@H]3[C@@H](CC=O)C[C@@H](C)[C@@H](OC(C)=O)/C=C/C=C/C[C@@H](C)OC(=O)C[C@@H](OC(=O)CC)[C@@H]3OC)O[C@@H]2C)C[C@]1(C)OC(C)=O	26%
89	COCC1CN(C(C)=O)CC12CCN(C(=O)CC1CCCCC1)CC2 (centres undefined)	4%
90	CC(C)c1ccc(N2CC(C(=O)N(C)C3CCSCC3)CC2=O)cc1 (centres undefined)	0%
91	C[C@]12CC[C@H](O[C@@H]3O[C@H](CO)[C@@H](O)[C@H](O)[C@H]3O[C@@H]3O[C@H](CO)[C@@H](O)[C@H](O)[C@H]3O)CC1=CC[C@@H]1[C@@H]2CC[C@]2(C)[C@@H](C3=CC(=O)OC3)CC[C@]12O	1%[10 µM]
92	CCOC(=O)N1CCN(C(C(=O)O)c2ccc(OC)nc2OC)CC1 (centres undefined)	i
93	Cc1ccc(C(C)C)cc2c(C)ccc1-2	-1%
94	c1ccc(CNCc2nnc(-c3cc4ccccc4[nH]3)s2)cc1	4%
95	CC(=O)NCC(=O)N1C2CCC1c1cc(Nc3ncc(C(F)(F)F)c(NC4CCC4)n3)ccc12 (centres undefined)	u
96	Cc1ccc(NC2=C(CC(=O)O)C(c3ccc(F)cc3)N(c3ccc(C)cc3)C2=O)cc1 (centres undefined)	-21%
97	Cc1cccc2nc(-c3ccc(Cl)s3)c(Nc3ccc4c(c3)OCCO4)n12	-17%
98	Cn1cccc1CN[C@H]1[C@H](O)[C@@H](N2CCCC2)[C@@H]2OC[C@H]1O2	u
99	CC(C)CCOc1ccccc1Cn1c(=O)sc2ccccc21	u
100	COc1ccc(S(=O)(=O)N2C[C@@H]3C[C@H](C2)c2c(NC(=O)c4ccccc4)ccc(=O)n2C3)cc1	4%

# An excerpt of these results, with each value named.
93	Cc1ccc(C(C)C)cc2c(C)ccc1-2
  nsP2pro primary = -1%

84	O=C1Nc2ccccc2/C1=C/c1cc(O)ccc1O
  nsP2pro primary = 7.9µM*

91	C[C@]12CC[C@H](O[C@@H]3O[C@H](CO)[C@@H](O)[C@H](O)[C@H]3O[C@@H]3O[C@H](CO)[C@@H](O)[C@H](O)[C@H]3O)CC1=CC[C@@H]1[C@@H]2CC[C@]2(C)[C@@H](C3=CC(=O)OC3)CC[C@]12O
  nsP2pro primary = 1%[10 µM]

100	COc1ccc(S(=O)(=O)N2C[C@@H]3C[C@H](C2)c2c(NC(=O)c4ccccc4)ccc(=O)n2C3)cc1
  nsP2pro primary = 4%

# The listing continues:
nr	Molecule	nsP2pro primary
101	COc1ccc(CCNC(=O)c2c(Nc3ccccc3C)sc(C(=O)c3ccccc3)c2N)cc1OC	10%
102	Cc1ccc(-c2ncc(C(=O)N3CCC(Nc4ncccn4)CC3)c(=O)[nH]2)cc1	i
103	COc1cc(O)c([C@H](CC(=O)N2CC(C)CC(C)C2)c2ccc3c(c2)OCO3)c(OC)c1 (some centres undefined)	-11%[39.2 µM]
104	c1cc2c(cc1C1OC[C@@H]3C(c4ccc5c(c4)OCO5)OC[C@H]13)OCO2 (some centres undefined)	0%
105	N#C/C(=C/c1ccccc1Cl)c1nc2ccccc2c(=O)[nH]1	-13%

# Structural class: the entries above with a cyano group.
nr	Molecule	nsP2pro primary
3	C[C@]12CCC3=C4CCC(=O)C=C4CC[C@H]3[C@@H]1CC[C@@]2(O)CC#N	-5%
64	CCCS(=O)(=O)N1C[C@@H]2C[C@H](C1)c1c(-c3cccc(C#N)c3)ccc(=O)n1C2	u
105	N#C/C(=C/c1ccccc1Cl)c1nc2ccccc2c(=O)[nH]1	-13%
